# Screening results (PubChem BioAssay)
# NOMO-1 viab = STK33 inhibitor candidate reducing NOMO-1 cell viability; NOMO-1 AML viability, CellTiter-Glo luminescence, 72 h; inhibition, % (concentration not given with the values); 37,000 compounds, 7.5% hits; AID 2330;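 active means most replicates above 80%; inconclusive means exactly half above 80%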;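 further: wells of about 30 µL received 25 nL stock; 0% = median of vehicle wells and 100% = reference inhibitor level; the first replicate is given; inactives centre near 10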
# Numbers without * were called inactive; ? = inconclusive.
cpd	Molecule	NOMO-1 viab
1	CNC[C@@H]1Oc2ccc(NC(=O)C3CCCCC3)cc2C(=O)N([C@H](C)CO)C[C@H]1C	24
2	O=C(CCSc1nc2ccccc2o1)Nc1ccc(F)cc1	-16
3	C[C@@H]1CN([C@H](C)CO)C(=O)Cc2cc(NC(=O)Nc3ccc4c(c3)OCO4)ccc2O[C@@H]1CN(C)S(=O)(=O)c1cccs1	-2
4	CCOc1ccc(OC(=O)c2cccnc2)cc1	?
5	CCOC(=O)C1CCCN(Cc2nc(N)nc(Nc3ccc(C)cc3)n2)C1 (stereo unspecified)	47
6	C[C@H](CO)N1C[C@H](C)[C@@H](CN(C)S(=O)(=O)c2ccc(F)cc2)Oc2ccc(NC(=O)Nc3cccc4ccccc34)cc2C1=O	-15
7	C[C@@H]1CN([C@H](C)CO)C(=O)Cc2cc(NC(=O)Nc3ccc(C(F)(F)F)cc3)ccc2O[C@H]1CN(C)S(=O)(=O)c1ccc(Cl)cc1	117*
8	CC(C)NC(=O)Nc1ccc2c(c1)C(=O)N([C@H](C)CO)C[C@H](C)[C@H](CN(C)C(=O)NC(C)C)OCCCC[C@@H](C)O2	31
9	CCN(CC)C(=O)CSc1nc(N)cc(=O)[nH]1	-8
10	C[C@@H]1CN([C@@H](C)CO)C(=O)Cc2cc(NS(=O)(=O)c3ccc(Cl)cc3)ccc2O[C@@H]1CN(C)S(C)(=O)=O	27
11	CC(NC(=O)c1ccc(Cl)cc1)C(=O)NC(C)(C)CO (stereo unspecified)	23
12	COC(=O)c1cccc(NC(=O)Cc2ccccc2[N+](=O)[O-])c1C	17
13	C[C@@H]1CN([C@H](C)CO)C(=O)c2cc(NC(=O)C3CC3)ccc2O[C@@H]1CN(C)C(=O)Nc1ccccc1	11
14	COc1cc(-c2coc3cc(OC)c(OC)c(OC)c3c2=O)cc(OC)c1OC	25
15	COc1ccc(-c2nnc(SCC(N)=O)n2-c2ccc(Cl)cc2)cc1	14
16	CC(=O)Nc1ccc(C(=O)CSc2nc3ccccc3o2)cc1	13
17	COc1ccc(C(=O)COc2ccc(NC(=O)c3cccc([N+](=O)[O-])c3)cc2)cc1	1
18	C[C@@H]1CCCCO[C@@H](CN(C)Cc2ccncc2)[C@@H](C)CN([C@H](C)CO)C(=O)c2cc(NC(=O)Nc3ccc(F)cc3)ccc2O1	-6
19	C[C@@H]1CN([C@H](C)CO)C(=O)c2cccc(NC(=O)c3cnccn3)c2O[C@H]1CN(C)CC1CCCCC1	16
20	COc1cc(NC(=O)CSc2nc(C)cc(=O)[nH]2)c(OC)cc1Cl	1
21	C[C@@H]1CN([C@H](C)CO)C(=O)c2cc(NC(=O)Nc3ccc(C(F)(F)F)cc3)ccc2O[C@@H]1CN(C)C	38
22	CC(C)NC(=O)Nc1cccc2c1O[C@H](CN(C)C(=O)NC1CCCCC1)[C@H](C)CN([C@H](C)CO)C2=O	7
23	Cc1ccc(S(=O)(=O)N(C)C[C@H]2Oc3ccc(NC(=O)Nc4c(C)noc4C)cc3CC(=O)N([C@@H](C)CO)C[C@@H]2C)cc1	19
24	C[C@@H]1CN([C@@H](C)CO)C(=O)c2cc(NC(=O)CCN3CCOCC3)ccc2O[C@H]1CN(C)Cc1ccc(Oc2ccccc2)cc1	25
25	Cc1noc(C)c1S(=O)(=O)Nc1ccc2c(c1)C(=O)N([C@H](C)CO)C[C@H](C)[C@H](CN(C)S(=O)(=O)c1ccccc1)OCCCC[C@@H](C)O2	24
26	O=C(CSc1nnc(-c2ccccc2)o1)Nc1cccc(F)c1	4
27	C[C@H](CO)N1C[C@H](C)[C@@H](CN(C)Cc2ccc(C(F)(F)F)cc2)Oc2ccc(NS(=O)(=O)c3cccs3)cc2C1=O	8
28	Cc1noc(C)c1S(=O)(=O)N(C)C[C@@H]1Oc2ccc(NS(=O)(=O)c3ccc(Cl)cc3)cc2CC(=O)N([C@@H](C)CO)C[C@@H]1C	15
29	CSc1nc(N)nc(SCC(=O)c2ccc(Cl)s2)c1C#N	?
30	O=C(CSc1nc2ccc(C(=O)c3ccccc3)cc2[nH]1)Nc1cccc(Cl)c1	30
31	Cc1nn(Cc2cccc(C(=O)NCc3ccccn3)c2)c(C)c1Cl	21
32	Cc1ccc([N+](=O)[O-])cc1NC(=O)CSc1nnc(-c2ccc(Br)cc2)o1	23
33	C[C@H](CO)N1C[C@H](C)[C@@H](CN(C)Cc2ccncc2)Oc2c(NC(=O)c3ccncc3)cccc2C1=O	2
34	C[C@@H]1CN([C@H](C)CO)C(=O)c2cccc(NS(=O)(=O)c3ccc(Cl)cc3)c2O[C@@H]1CN(C)S(=O)(=O)c1ccc(Cl)cc1	13
35	Cc1noc(C)c1NC(=O)N(C)C[C@@H]1Oc2ccc(NC(=O)Nc3ccc4c(c3)OCO4)cc2C(=O)N([C@@H](C)CO)C[C@@H]1C	9
36	COc1ccc(S(=O)(=O)N(C)C[C@@H]2OCCCC[C@@H](C)Oc3ccc(NC(=O)Nc4ccc(F)cc4)cc3C(=O)N([C@H](C)CO)C[C@@H]2C)cc1	12
37	COC(=O)C1=C(C)NC(C)=C(C(=O)OCCSc2ccccc2)C1C (stereo unspecified)	42
38	COc1cc(Cl)c(C)cc1NC(=O)CN(C)S(=O)(=O)c1ccc2ccccc2c1	18
39	C[C@H](CO)N1C[C@H](C)[C@@H](CN(C)S(=O)(=O)c2ccc(F)cc2)Oc2ccc(NC(=O)CCCN(C)C)cc2C1=O	-3
40	Cc1noc(C)c1S(=O)(=O)N(C)C[C@@H]1OCCCC[C@@H](C)Oc2ccc(NC(=O)c3ccccc3)cc2C(=O)N([C@H](C)CO)C[C@@H]1C	28
41	C[C@H]1CN([C@@H](C)CO)C(=O)Cc2cc(NC(=O)Nc3ccc4c(c3)OCO4)ccc2O[C@H]1CN(C)C(=O)Nc1cccc2ccccc12	-1
42	CCn1c(SCC(=O)Nc2ccc(C)cc2C)nnc1-c1cccs1	-5
43	CC(C)NC(=O)Nc1ccc2c(c1)CC(=O)N([C@@H](C)CO)C[C@H](C)[C@H](CN(C)S(=O)(=O)c1cn(C)cn1)O2	17
44	COc1cc(NC(=O)CN(C)S(=O)(=O)c2ccc(Br)cc2)c(OC)cc1Cl	23
45	C[C@@H]1CN([C@H](C)CO)C(=O)c2cc(NC(=O)CCCN(C)C)ccc2O[C@H]1CN(C)S(=O)(=O)c1ccc(Cl)cc1	-8
46	COc1ccc(N(CC(=O)Nc2ccc(I)cc2)S(C)(=O)=O)cc1OC	-20
47	Clc1cccc(Nc2nnc(-c3ccccc3)c3ccccc23)c1	73
48	COc1ccc(OC)c(S(=O)(=O)N2CCC(C(=O)Nc3cccc(F)c3)CC2)c1	3
49	COc1ccc(NC(=O)Nc2cccc3c2O[C@H](CN(C)Cc2ccc(Cl)c(Cl)c2)[C@H](C)CN([C@H](C)CO)C3=O)cc1	59
50	Cc1noc(C)c1S(=O)(=O)N(C)C[C@H]1Oc2c(NS(=O)(=O)c3ccc(F)cc3)cccc2C(=O)N([C@@H](C)CO)C[C@H]1C	19

# (further entries)
cpd	Molecule	NOMO-1 viab
51	C[C@H](CO)N1C[C@H](C)[C@@H](CN(C)S(=O)(=O)c2ccccc2)Oc2c(NC(=O)CCCCCC(=O)Nc3ccccc3N)cccc2C1=O	43
52	O=C(COc1ccccc1Cl)Nc1ccc2oc(-c3ccc(F)cc3Cl)nc2c1	34
53	Cc1noc(C)c1S(=O)(=O)Nc1cccc2c1O[C@H](CN(C)Cc1ccc(-c3ccccc3)cc1)[C@H](C)CN([C@H](C)CO)C2=O	27
54	COc1ccc(S(=O)(=O)N(C)C[C@H]2Oc3c(NC(=O)Nc4ccc(C(F)(F)F)cc4)cccc3C(=O)N([C@@H](C)CO)C[C@H]2C)cc1	121*
55	COc1cc(NS(=O)(=O)c2ccccc2[N+](=O)[O-])c(OC)cc1Cl	10
56	C[C@H](CO)N1C[C@H](C)[C@H](CN(C)S(C)(=O)=O)Oc2ccc(NC(=O)CCN3CCOCC3)cc2CC1=O	5
57	COc1c(Cc2ccccc2O)c(O)c(Cc2ccccc2O)c(O)c1C(=O)CCc1ccccc1	106*
58	CCC1=Nc2ccc(Br)cc2C(c2ccccc2)N1CC(=O)NN (stereo unspecified)	15
59	O=C(CC1Sc2ccc(Cl)cc2NC1=O)Nc1ccc([N+](=O)[O-])cc1 (stereo unspecified)	30
60	C[C@@H]1CN([C@H](C)CO)C(=O)Cc2cc(NS(=O)(=O)c3cccs3)ccc2O[C@H]1CN(C)C(=O)Nc1ccc2c(c1)OCO2	-2
61	C[C@@H]1CCCCO[C@H](CN(C)Cc2ccc(C(=O)O)cc2)[C@@H](C)CN([C@H](C)CO)C(=O)c2cc(NC(=O)CCC(F)(F)F)ccc2O1	-18
62	CCN(CC)C(=S)Sc1ncnc2sc3c(c12)CCCC3	125*
63	CC(C)NC(=O)Nc1ccc2c(c1)CC(=O)N([C@H](C)CO)C[C@@H](C)[C@H](CN(C)S(C)(=O)=O)O2	-27
64	NNC(=O)CNc1ccc2c(c1)OCO2	8
65	C[C@@H]1CN([C@@H](C)CO)C(=O)c2cccc(NC(=O)c3ccncc3)c2O[C@@H]1CN(C)C(=O)Nc1cccc2ccccc12	21
66	C[C@@H]1CN([C@H](C)CO)C(=O)Cc2cc(NC(=O)CCCCCC(=O)Nc3ccccc3N)ccc2O[C@@H]1CN(C)Cc1ccncc1	24
67	C=C(C(=O)O)[C@@H]1CC[C@H](C)[C@@H]2CC(=O)C(C)=C2C1	22
68	COc1ccccc1CCNC(=O)c1c(-c2c(F)cccc2Cl)noc1C	4
69	C[C@@H]1CN([C@@H](C)CO)C(=O)Cc2cc(NC(=O)CCC(F)(F)F)ccc2O[C@@H]1CN(C)Cc1ccc(-c2ccccc2)cc1	30
70	C[C@@H]1CN([C@@H](C)CO)C(=O)c2cc(NS(C)(=O)=O)ccc2O[C@H]1CN(C)C	8
71	C[C@H](CO)N1C[C@H](C)[C@@H](CN(C)C(=O)NC2CCCCC2)Oc2ccc(NC(=O)Nc3cccc4ccccc34)cc2C1=O	12
72	Cc1ccc(C(=O)CC2(O)C(=O)N(CCCC#N)c3ccccc32)o1 (stereo unspecified)	22
73	C[C@@H]1CN([C@@H](C)CO)C(=O)c2cccc(N(C)C)c2O[C@@H]1CN(C)C(=O)NC1CCCCC1	13
74	Cc1ccc(S(=O)(=O)N(C)C[C@@H]2Oc3c(NC(=O)c4cnccn4)cccc3C(=O)N([C@@H](C)CO)C[C@H]2C)cc1	0
75	COc1cccc(OCC(=O)Nc2cccc(C(=O)O)c2C)c1	15

# Shown as labelled records: part of the list above
52: O=C(COc1ccccc1Cl)Nc1ccc2oc(-c3ccc(F)cc3Cl)nc2c1
  NOMO-1 viab: 34

53: Cc1noc(C)c1S(=O)(=O)Nc1cccc2c1O[C@H](CN(C)Cc1ccc(-c3ccccc3)cc1)[C@H](C)CN([C@H](C)CO)C2=O
  NOMO-1 viab: 27

54: COc1ccc(S(=O)(=O)N(C)C[C@H]2Oc3c(NC(=O)Nc4ccc(C(F)(F)F)cc4)cccc3C(=O)N([C@@H](C)CO)C[C@H]2C)cc1
  NOMO-1 viab: 121*

55: COc1cc(NS(=O)(=O)c2ccccc2[N+](=O)[O-])c(OC)cc1Cl
  NOMO-1 viab: 10

# Carrying on:
cpd	Molecule	NOMO-1 viab
76	C[C@@H]1CN([C@@H](C)CO)C(=O)c2cccc(NC(=O)NC3CCCCC3)c2O[C@@H]1CN(C)C(=O)Nc1cccc2ccccc12	36
77	Cn1c(SCC(=O)c2ccccc2)nnc1-c1cc2ccccc2o1	-20
78	C[C@@H]1CN([C@@H](C)CO)C(=O)Cc2cc(NS(=O)(=O)c3cn(C)cn3)ccc2O[C@@H]1CN(C)Cc1ccccc1	19
79	Cc1ccc(S(=O)(=O)N(C)C[C@@H]2Oc3ccc(NC(=O)NC4CCCCC4)cc3CC(=O)N([C@H](C)CO)C[C@H]2C)cc1	9
80	O=C(CCSc1nc2ccccc2o1)N1CCOCC1	-11
81	COc1ccc(CN(C)C[C@H]2Oc3ccc(NC(=O)Nc4c(C)noc4C)cc3CC(=O)N([C@H](C)CO)C[C@H]2C)cc1	-4
82	CC(C)NC(=O)N(C)C[C@H]1Oc2ccc(NS(=O)(=O)c3ccc(F)cc3)cc2CC(=O)N([C@H](C)CO)C[C@H]1C	8
83	C[C@@H]1CCCCO[C@H](CN(C)Cc2ccccc2)[C@@H](C)CN([C@H](C)CO)C(=O)c2cc(NS(=O)(=O)c3cn(C)cn3)ccc2O1	15
84	Cc1noc(C)c1NC(=O)N(C)C[C@@H]1Oc2ccc(NS(=O)(=O)c3ccc(Cl)cc3)cc2C(=O)N([C@H](C)CO)C[C@@H]1C	12
85	C[C@@H]1CN([C@H](C)CO)C(=O)c2cc(NS(C)(=O)=O)ccc2O[C@@H]1CN(C)Cc1ccccc1	8
86	O=C(CSc1nc(N2CCCCC2)nc(N2CCCCC2)n1)Nc1ccc(F)cc1	48
87	CSc1cccc(NC(=O)CSc2nnc(-c3ccco3)n2C)c1	-15
88	COc1ccc(-c2cc(C)nc(SCC(=O)Nc3cccc(Cl)c3Cl)n2)cc1	5
89	C[C@@H]1CN([C@H](C)CO)C(=O)Cc2cc(NC(=O)c3ccncc3)ccc2O[C@@H]1CN(C)C(=O)Nc1cccc2ccccc12	25
90	C[C@H]1CN([C@@H](C)CO)C(=O)Cc2cc(NC(=O)Cn3cnnn3)ccc2O[C@@H]1CN(C)CC1CC1	2
91	CCOC(=O)Cn1c(C)c(Sc2ccccc2)c2ccccc21	13
92	C[C@H](CO)N1C[C@H](C)[C@@H](CN(C)CC2CCCCC2)Oc2ccc(NC(=O)NC3CCCCC3)cc2C1=O	13
93	Cc1ccc(S(=O)(=O)N(C)C[C@@H]2Oc3c(NC(=O)Nc4c(C)noc4C)cccc3C(=O)N([C@H](C)CO)C[C@H]2C)cc1	-17
94	CC(C)NC(=O)N(C)C[C@@H]1Oc2ccc(NC(=O)C3CCCCC3)cc2CC(=O)N([C@H](C)CO)C[C@H]1C	-7

# Not all compounds are listed; rates above refer to the full screens.
